Compound activity deposited in PubChem by National Center for Advancing Translational Sciences (NCATS).
D2 agonist: Beta-Arrestin HTS for Positive Allosteric Modulators of the Human D2 Dopamine Receptor: Agonists. D(2) dopamine receptor (Homo sapiens), P14416. DiscoveRx PathHunter D2 beta-arrestin, luminescence, 90 min; 100% = 57 uM dopamine signal. activation, % (no concentration beside the values). 0.084% of 360,000 active; in the data active = activation above about 40%; inconclusive = about 15% to 40%; inactive = below about 15%; also: compound concentration not given in the record; the text of the record calls up to 30% inactive
Target sequence (P14416 whole entry, looked up): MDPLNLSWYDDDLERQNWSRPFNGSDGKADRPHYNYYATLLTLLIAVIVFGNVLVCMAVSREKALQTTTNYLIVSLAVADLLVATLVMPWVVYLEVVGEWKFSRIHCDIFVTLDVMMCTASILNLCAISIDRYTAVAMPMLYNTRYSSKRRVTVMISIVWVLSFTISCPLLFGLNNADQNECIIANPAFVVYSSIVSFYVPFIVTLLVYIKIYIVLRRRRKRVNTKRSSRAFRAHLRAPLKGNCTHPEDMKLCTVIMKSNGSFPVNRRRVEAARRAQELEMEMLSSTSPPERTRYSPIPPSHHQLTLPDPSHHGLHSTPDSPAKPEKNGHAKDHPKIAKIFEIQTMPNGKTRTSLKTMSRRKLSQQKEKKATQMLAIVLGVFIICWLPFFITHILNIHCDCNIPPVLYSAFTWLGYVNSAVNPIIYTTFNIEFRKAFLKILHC
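Agonist mode: compounds alone added to overnight-plated D2 PathHunter cells for 90 min at 37 C, with 57 uM final dopamine (EC100) defining full response. Beta-arrestin recruitment detected by chemiluminescent reagent, read after 1 h at ambient temperature.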
Menin MLL FP FL: qHTS Assay for Inhibitors Targeting the Menin-MLL Interaction in MLL Related Leukemias: Competition With Fluorescein Labeled MLL-derived Peptide | Fluorescence polarization, fluorescein-MLL peptide displacement from menin | 290,000 tested, under 10 active | FP activity change, % at 61.4 µM; inconclusive = falling polarisation curve, or a change in total fluorescence; inactive = total fluorescence flat and polarisation flat or rising; no compound was filed as active; the % refers to the polarisation; negative = inhibition;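 also: % of control where 0% means no effect; inhibitors lower the polarisation; unlabelled MLL peptide was the positive control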
ClpP mod: qHTS Assay for Activators of ClpP | AID 651965, 2013 | Potency, µM (doses to about 57.5 µM), without a hit: at the top dose activity change, negative = active | 1.9% of 340,000 active | purified B. subtilis ClpP, FRET peptide cleavage, 20 min; active = well fitted falling curve with a large enough effect; inconclusive = small, poorly fitted or top-dose-only effect; inactive = no such curve, though single readings can be large or run the other way; also: potency is read from the fitted curve at half-maximal effect; the source files actives as falling curves though it sought activators and does not explain the sign; nearly all actives have a fitted effect of over 65% in size; many hits overshoot -100%
Target sequence (P80244 whole entry, looked up): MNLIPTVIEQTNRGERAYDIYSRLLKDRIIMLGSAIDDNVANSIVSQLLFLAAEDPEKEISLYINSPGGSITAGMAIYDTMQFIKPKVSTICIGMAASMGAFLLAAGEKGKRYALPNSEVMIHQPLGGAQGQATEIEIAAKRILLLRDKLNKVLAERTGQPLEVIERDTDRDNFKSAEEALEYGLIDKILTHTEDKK
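Purified B. subtilis ClpP, 10 microg/mL final in Tris/HCl pH8 with KCl, BSA, glycerol and Tween-20, cleaved an Abz/nitrotyrosine-quenched decapeptide. Fluorescence (ex 320, em 430) was read at 0 and 20 min at room temperature. Delta was normalized to 5.8 microM ADEP and DMSO/no-enzyme controls.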
PINK1 modulator: A Quantitative High throughput Screen to Identify Chemical Modulators of PINK1 Expression; Potency, µM (top dose mostly 76.6 µM), inactives show at the highest dose activation (PINK1 increase), hits mostly activators; 0.2% of 410,000 active; PINK1 immunofluorescence, high-content cytometry, 24 h; AID 624263, 2012; active = well fitted activation curve with a large enough effect; inconclusive = small, poorly fitted or top-dose-only effect; inactive = flat fitted curve, though single readings scatter; cell line not stated here;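 also: potency is read from the fitted curve at half-maximal effect; % of control where 0% means no effect; nearly all actives have a fitted effect of over 65% in size; a mitochondrial uncoupler was the plate control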
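Compound titrations (5 concentrations, 24 h) on a stable cell line; DMSO and CCCP controls. Endpoint: fixed-cell PINK1 immunofluorescence with mitochondrial, cell and nuclear markers, scanned by microplate cytometer.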
Sfp inh: qHTS Assay for Inhibitors of Bacillus subtilis Sfp phosphopantetheinyl transferase (PPTase); 3.5% of 310,000 active; 4'-phosphopantetheinyl transferase ffp (Bacillus subtilis), Q9F4F7; Potency, µM, for the others: max response, negative = inhibition, actives largely listed as inhibitors; Biochemical Sfp PPTase activity, qHTS; active = well fitted inhibition curve with a large enough effect; inconclusive = small, poorly fitted or top-dose-only effect, or another doubt; inactive = no such curve, though single readings can be large or run the other way;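 also: the enzyme is Sfp with the accession as filed and its product quenches rhodamine fluorescence; potency is read from the fitted curve at half-maximal effect; 0% = enzyme reaction without inhibitor and -100% = no enzyme wells; top concentration of the series not given in the record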
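Buffer: 50 mM Hepes-Na pH 7.6, 10 mM MgCl2, 0.01% Nonidet P-40, 0.01% BSA. Enzyme 15 nM, pre-exposed to compound 15 min; substrates then added and fluorescence change tracked over 30 min.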
gsp antag: qHTS for Antagonists of gsp, the Etiologic Mutation Responsible for Fibrous Dysplasia/McCune-Albright Syndrome: qHTS | 0.4% of 340,000 active | AID 624288, 2012 | gsp-mutant cells, cAMP HTRF, 30 min; control for the full effect not named in the record | Potency, µM (doses to about 76.9 µM), for inactives: at the highest dose activity change, negative = inhibition, usual class: inhibitors; active = falling curve of any shape with a large fitted effect; inconclusive = falling curve, mostly with a smaller effect; inactive = flat or rising curve; cell line not stated here;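 also: intracellular cAMP measured with PDE inhibitor Ro 20-1724 present during compound exposure; potency is read from the fitted curve at half-maximal effect; % is scaled to controls: 0 for no effect and ±100 for the full control effect; nearly all actives have a fitted effect of over 65% in size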
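Cells in G418 medium, seeded 16-24 h, 37C; buffer exchange to DPBS + 1 mM CaCl2, 0.5 mM MgCl2, 0.05% BSA; cpds in DMSO + […] (300 uM stock), 30 min 37C; HTRF cAMP detection.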
gsp ag: qHTS for Agonist of gsp, the Etiologic Mutation Responsible for Fibrous Dysplasia/McCune-Albright Syndrome: qHTS | 0.13% of 340,000 active | Potency, µM (doses to about 76.9 µM), without a hit: at the highest dose activation (cAMP increase), usual class: activators | gsp mutant cells, cAMP HTRF, 30 min; control for the full effect not named in the record; active = well fitted activation curve with a large enough effect; inconclusive = small, poorly fitted or top-dose-only effect, or another doubt; inactive = no such curve, though single readings can be large or run the other way; cell line not stated here;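 also: phosphodiesterase inhibitor Ro 20-1724 added with compounds to block cAMP breakdown; potency is read from the fitted curve at half-maximal effect; nearly all actives have a fitted effect of over 60% in size; about a fifth of the inactives were tested at one dose only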
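Cells in DMEM/10% FBS with G418 were pretreated with compounds in DMSO plus […] (300 uM stock) for 30 min at 37C. cAMP was measured by HTRF (cAMP-d2 plus anti-cAMP antibody-K) after 30 min at room temperature.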
* = called active by the depositor; ? = inconclusive; nt = no result given; & = joins results of further samples; [ ] = remark or other dose.

SMILES	D2 agonist	Menin MLL FP FL	ClpP mod	PINK1 modulator	Sfp inh	gsp antag	gsp ag
O=[N+]([O-])c1ccc(N2CCN(S(=O)(=O)c3cnc[nH]3)CC2)cc1	-1.6	-1.4	1.9%	1.4%	11%	-8%	?
CC(=O)c1cccc(S(=O)(=O)N2CCC(C(=O)NC3CCCC3)CC2)c1	-0.8	nt	1.2%	-0.9%	nt	-9%	0%[15.4 µM]
CCN(C(=O)CN1C(=O)NC(c2ccccc2)(c2ccccc2)C1=O)c1ccccc1	0.6	5.1	nt	3.0%	24%	-1%	7%
O=C1CCCC2=C1C(c1ccccc1)CC(=O)N2c1ccc(F)cc1F (centres undefined)	-0.9	-0.8	2.1%	6.0%	21%	-21%	-1%[15.4 µM]
COc1ncccc1-c1nnn(-c2ccc(C)cc2)n1	1.7	0.2	-13%	2.6%	-12%	2%	nt
COc1cc(C2C(C#N)=C(N)Oc3cc4c(cc32)OCO4)cc(OC)c1OC (centres undefined)	-1.7	5.1	nt	7.9%	-7%	9%	30%[15.4 µM]
CCc1cc(C(=O)c2ccc(OC)cc2)c(NC(=O)CCC(=O)O)s1	-1.2	2.8	0.3%	-1.1%	19%	?	-12%[15.4 µM]
CCCCC[C@@H]1C=C(C(=O)O)[C@H](c2ccc(Br)cc2)N1S(=O)(=O)c1ccc(C)cc1	-0.7	nt	2.2%	0.4%	nt	-21%	nt
COC(=O)c1cc(C(=O)OC)n(Cc2ccc(Cl)cc2Cl)n1	-2.2	5.4	1.4%	3.9%[38.3 µM]	3%	3%	3%
CN(C)c1cc[n+](CC[n+]2ccc(N(C)C)cc2)cc1	-2.8	nt	-0.7%	-0.4%	nt	6%	2%
C=CCOc1ccc(/C=C\c2nc(O)c([N+](=O)[O-])c(=O)[nH]2)cc1OC	-7.1	1.7	-5.6%	1.4%	9%	6%	3%
O=C(CC[C@H]1O[C@@H](n2cnc3c(NC(=O)c4ccccc4)ncnc32)[C@H](O)[C@@H]1O)N[C@@H](CO)c1ccccc1	0.6	nt	-2.9%	0.3%	nt	nt	nt
N#CC1=C(SCC(=O)NCc2ccccc2)NC(=O)CC1c1ccco1 (centres undefined)	-3.0	2.4	-0.4%	1.7%	-6%	-18%	-9%
COc1ccc(C(=O)Nc2cc3c(cc2N2CCOCC2)n(C)c(=O)n3C)cc1OC	-0.9	nt	-0.4%	0.5%	22%	17%	-13%
CCCc1nc(N)c(C#N)c(N)c1C#N	0.6	-0.3	-4.5%	0.3%	10%	2%	22%
CN(C)CCCNc1nc2cc(-c3cncnc3)sc2c(=O)n1C	-1.3	nt	-14%	1.8%	nt	nt	nt
CCCCN(CC)C(=O)C1CCC(CNS(=O)(=O)c2cccc3nsnc23)CC1 (centres undefined)	10	nt	-2.3%&-6.6%	-1.4%&0.3%	-6%	-6%	?
CN(C)c1nc(-c2ccc3c(c2)OCO3)nc2ccccc12	nt	1.5	nt	1.7%	-27%	nt	nt
O=C(Cn1nc(CNc2ccc(Cl)cc2)[n+]2c1CCCCC2)c1ccc(Br)cc1	-6.2	10	-3.1%	5.6%	?	-2%	-12%
O=C(CSc1nc2ccccc2c(=O)n1CCCN1CCOCC1)NCCc1ccccc1	7.2	nt	-5.4%	-0.1%	nt	-11%	7%
Cc1cccc(C)c1NC(=S)NC(=O)c1cccc(Cl)c1	-7.3	nt	-0.2%	1.3%	nt	nt	nt
CNC(=O)Nc1cccc(C(F)(F)F)c1	-2.4	-2.4	-1.8%	-0.5%	15%	9%	-11%
O=C(NC1CCCCC1)c1cccc2c1C(=O)c1ccc(N3CCCC3)cc1S2(=O)=O	-2.2	nt	1.6%	2.9%	nt	-11%	nt
CC1(C)OC(=O)N(c2ccccc2)C12C=Cc1c(ccc3ccccc13)O2 (centres undefined)	-2.1	5.6	-2.2%	0.9%	-5%	-15%	10%
COC(=O)c1cc(Br)c(=O)n(CCN2CCCC2)c1	-0.9	-11	-5.3%	3.2%	-7%	9%	-25%
COc1cc(NC(=O)Cc2cccs2)cc(OC)c1	-2.8	-0.8	0.8%	-2.2%	14%	7%	-46%[inhibitor]
O=C(NN=Cc1ccccc1Cl)c1cccc2ccccc12	0.1	nt	-0.2%	8.0%	nt	-2%	-1%
Cc1cc(C)n2nc(N)nc2n1	0.7	nt	-1.9%	1.4%	nt	12%	1%
Cc1cnnn1-c1ccc(C(=O)CCl)cc1	-7.1	6.7	-3.7%	6.5%	?	-8%	-31%
CCC(C)[C@H](NC(=O)NCc1ccc(S(N)(=O)=O)cc1)C(=O)OC (some centres undefined)	-2.7	-1.3	nt	0.9%	13%	17%	0%
Cc1nc(NC(=O)CSc2nncs2)c(Cl)cc1Cl	0.2	1.6	0.2%	-1.0%	12%	5%	5%
CCCCn1nnnc1SCC(=O)NC1CCCCC1	-3.9	-8.3	nt	0.3%	15%	6%	-7%
O=C(NCc1ccncc1)/C(=C/c1cccc([N+](=O)[O-])c1)NC(=O)c1ccccc1	-2.6	-3.0	0.1%	0.1%	12%	3%	-8%
CC1CN(C(=O)CCc2ccccc2)C(C)CN1C(=O)CCc1ccccc1 (centres undefined)	-3.1	0.3	-4.2%	-0.4%	4%	11%	-5%
C[C@H]1CN([C@@H](C)CO)C(=O)CCCn2cc(nn2)CO[C@@H]1CN(C)C(=O)OCc1ccccc1	3.7	nt	-3.1%	2.0%	nt	nt	nt
C=CCSc1nc(C)c(CCCC)c(=O)[nH]1	-0.9	-0.6	33%	-0.2%	14%	7%	22%[15.4 µM]
COc1cccc(NC(=O)CNC(=O)c2cccs2)c1	-1.4	1.9	-2.4%	2.0%	13%	-2%	-27%
O=C1C2CC=C(Cl)CC2C(=O)N1CC1OCCc2ccccc21 (centres undefined)	-3.4	0.0	-0.5%	-1.7%	-15%	24%	-3%
c1ccc2c(-c3ccc(OCCN4CCCCC4)cc3)c(-c3ccsc3)sc2c1	2.0	nt	-2.3%	0.2%	nt	13%	nt
O=C(Nc1nc2ccccc2[nH]1)c1cccc(F)c1	0.9	2.1	nt	7.0%	16%	?	?
O=C(O)C1CCC(Cn2c(SCc3cc(=O)n4cc(Cl)ccc4n3)nc3ccsc3c2=O)CC1 (centres undefined)	-1.7	0.1	-5.9%	-0.1%	-8%	2%	-33%
N=c1c(C(=O)NCC2CCCO2)cc2c(=O)n3ccccc3nc2n1Cc1ccc(F)cc1 (centres undefined)	-6.3	4.4	3.6%	-1.2%	-1%	-3%	?
COc1cccc(C(=O)Nc2ccc(C(=O)O)cc2)c1	-2.7	2.7	-1.7%	0.3%	-5%	-12%	12%
Cc1ccc(CNC(=O)COC(=O)CSc2cc(C)c(Br)cc2C)cc1	-3.5	0.0	-1.7%	-1.3%	1%	8%	0%[15.4 µM]
COC(=O)/C=C(\C)NC(=O)c1ccc(F)cc1	-2.3	5.7	-1.4%	-1.4%	4%	-12%	2%
CCCc1cc(=O)[nH]c(SCC(=O)N(C)CC(=O)Nc2ccccc2CC)n1	0.7	2.2	1.0%	-3.0%	0%	8%	?
CCOc1ccc(NC(=O)CC2C(=O)N(c3ccccc3)C(=O)N2Cc2ccccn2)cc1 (centres undefined)	0.0	-6.6	-2.5%	-3.0%[38.3 µM]	10%	-11%	-37%[inhibitor]
CC1(C)Oc2ccc3ccc(=O)oc3c2[C@@H](O)[C@H]1O	-2.4	nt	4.3%	3.8%	nt	4%	nt
O=C(Nc1nnc(-c2ccco2)o1)c1ccc(Cl)cc1	-2.6	-3.0	nt	2.2%	14%	-59%	41%[15.4 µM]
COc1cc(/C=N/NC(=O)C(=O)NCc2cccnc2)cc(OC)c1OC	0.0	1.3	1.1%	1.1%	-7%	8%	?
CCN(C(=O)c1c([N+](=O)[O-])cnn1C)c1ccccc1	-3.5	nt	-2.2%	1.6%	nt	nt	-4%
Nc1ccc(-n2nc(C(F)(F)F)cc2C(F)(F)F)cc1	-4.7	2.2	-2.2%	3.7%	22%	5%	4%[15.4 µM]
CCOc1ccc(S(=O)(=O)NCCC(=O)NCC(c2cccs2)N(C)C)cc1 (centres undefined)	-1.6	nt	0.0%	-1.7%	nt	12%	3%[15.4 µM]
COCc1nnc(NC(=O)c2ccccc2[N+](=O)[O-])s1	-3.2	2.9	0.1%	0.5%	-15%	-4%	0%
CC(C)OCC(O)CN1CCN(CCN2C(=O)c3cccc4cccc(c34)C2=O)CC1 (centres undefined)	-3.6	0.8	-20%	-1.6%	1%	7%	-14%
CC(C)(C)NC(=O)COc1coc(CN2CCN(Cc3ccccc3)CC2)cc1=O	-4.4	nt	nt	1.1%	23%	11%	8%
O=C(Cn1cnc2ccccc2c1=O)OCC(=O)c1ccc2c(c1)OCCO2	-2.7	-0.9	3.2%	-1.3%	4%	11%	?
COC(=O)c1cccc(NS(=O)(=O)c2ccc(NC(C)=O)cc2)c1C	-3.6	1.2	1.1%	nt	-2%	-9%	-24%
CCOC(=O)c1nn(-c2ccc(F)cc2)c2nc(CC(C)C)c(C#N)c(=O)n12	-0.8	-1.9	706%	-0.6%	5%	-19%	12%
Cc1cc(C)c(C(=O)NCC2CCCO2)c(C)c1C(=O)NCC1CCCO1 (centres undefined)	10	0.6	-0.2%	1.3%	23%	8%	?
CC(NC(=O)C1CCN(c2nnc(N3CCCC3=O)s2)CC1)c1ccccc1 (centres undefined)	-3.7	-1.5	0.9%	-0.3%	13%	-4%	1%
COc1ccc(C(=O)NC2CCN(C(=S)NCCc3ccccc3)CC2)cc1	5.1	1.4	nt	1.6%	8%	-6%	-25%

Compounds were not picked by outcome; overall some 5.1% were active at least once.
